Screening data (PubChem BioAssay)
HCMV NEC inh: inhibitors of HCMV UL50-UL53 nuclear egress complex interaction. HTRF UL50-UL53 interaction, normalized percent inhibition. inhibition, % (concentration not given with the values). 0.15% of 190,000 active;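 active means both replicates at 50% or more, plus weaker picks with an unusually low signal ratio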;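 further: stock transfer was 100 nL into about 20 µL; 0% = negative control wells and 100% = wells with untagged competitor protein; inactives centre near -12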
Sa growth inh: inhibitors of Staphylococcus aureus growth at 42 °C. AID 720641. 0.53% of 170,000 active. relative growth, % (no concentration beside the values). S. aureus RN4220 growth, OD600, 20 h; stronger effect = lower value;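 active means growth at 42 °C up to 50% and 20 or more points under that at 30 °C, or under 10% at both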;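 further: 300 nL library stock went into each well; scaled to the means of positive and negative controls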
GIV Gai3 FP: GIV-Galpha-i interaction inhibition; Galpha-i3/FITC-GIV peptide fluorescence polarization, 90 min; stronger effect = lower value; scaled: aluminum fluoride 0%, vehicle 100%; P08753; 0.42% of 210,000 active; percent of control (FP), % (test concentration not listed);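 active means replicate mean at 85% of control or lower, very high polarization wells dropped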;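 further: wells of about 15 µL received 100 nL stock; the first replicate is given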
Target sequence (P08753 whole entry, looked up): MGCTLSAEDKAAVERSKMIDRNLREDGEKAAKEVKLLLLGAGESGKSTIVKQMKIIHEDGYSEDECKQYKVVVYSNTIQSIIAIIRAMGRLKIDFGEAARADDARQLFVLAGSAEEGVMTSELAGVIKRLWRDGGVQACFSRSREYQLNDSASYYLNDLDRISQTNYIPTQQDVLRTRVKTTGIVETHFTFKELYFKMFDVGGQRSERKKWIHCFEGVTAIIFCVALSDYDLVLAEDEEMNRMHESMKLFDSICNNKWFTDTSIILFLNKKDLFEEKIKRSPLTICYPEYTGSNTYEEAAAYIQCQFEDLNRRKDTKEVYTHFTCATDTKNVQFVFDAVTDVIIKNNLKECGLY
Sa growth inh second temp: further read-out of Sa growth inh, marked with its call; relative growth, %; measured here: growth at 30 °C;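 optical density after 20 h as mean of two plates; 100% = untreated growth and lower means inhibition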
* = called active by the depositor; / = not tested or not shown.

SMILES | HCMV NEC inh | Sa growth inh | Sa growth inh second temp | GIV Gai3 FP
CCN(C(=O)Cn1c(=O)n(Cc2ccc3c(c2)OCO3)c(=O)c2ccc(C(=O)NC3CCCCC3)cc21)c1cccc(C)c1 | -19 | 107 | 92 | 101
O=C(NCCc1ccccc1)c1cccs1 | 9 | 98 | 95 | 113
Cc1cc(C)n(CCc2nc3c4ccccc4nc(=S)n3[nH]2)n1 | / | 84 | 64 | 94
CCOc1ccc(NC(=O)[C@H](C(C)CC)N2Cc3ccccc3C2=O)cc1 (stereo not given in full) | / | 93 | 81 | 104
COC(=O)c1ccc(C=Nc2ccc3oc(-c4ccc(C)cc4)nc3c2)cc1 | / | 102 | 93 | 103
Cc1ccc(-c2csc(N3N=C(c4ccc([N+](=O)[O-])cc4)CC3=O)n2)cc1 | -54 | / | / | 104
O=C(NC(=NCc1ccncc1)Nc1ccc2c(c1)OCCO2)c1ccc2c(c1)OCO2 | -13 | / | / | 102
COc1ccc(OCC(O)CNC(=O)c2ccc(C(F)(F)F)nc2C)cc1 (stereo not given) | -19 | 97 | 84 | 101
CC1=C(C(=O)Nc2ccccc2)C(c2cccc(O)c2)n2nc(-c3ccccc3Cl)nc2N1 (stereo not given) | -15 | 105 | 77 | 104
Cc1ccc(Cl)cc1NC(=O)CCCN1C(=O)CCn2nc(-c3cn(C)c4ccccc34)cc21 | / | 109 | 94 | 102
COc1ccc(Br)cc1CN(C)C(C)C(=O)N1CC(C)OC(C)C1 (stereo not given) | -10 | 92 | 93 | /
c1ccc(Cn2c(CSc3nnnn3C3CCCCC3)nc3ccccc32)cc1 | -33 | 84 | 89 | 99
Cc1[nH]c2ccccc2c(=O)c1CN1CCCCCC1 | -24 | 92 | 80 | 105
CCCCc1ccc(NC(=O)CSC2=NN3CCCC(=O)N=C3S2)cc1 | -21 | / | / | 102
O=c1[nH]c2cc(Cl)ccc2n(Cc2ccccc2)c1=O | 2 | 67 | 89 | /
CCC(C)(C(=O)NC1CCCC1)N(C)C(=O)c1ccc2c(c1)OCO2 (stereo not given) | -2 | 127 | 92 | 102
COc1ccc(NC(=O)CC2SC(=O)NC2=O)cc1 (stereo not given) | -29 | / | / | 106
C#CC(N)CCC(=O)O (stereo not given) | -30 | / | / | 105
Cn1nc(NC(=O)C2CCC2C(=O)O)c2ccccc21 (stereo not given) | -5 | 96 | 88 | 95
COc1ccc2c(CNCc3ccco3)c(C(=O)O)n(Cc3ccc(F)cc3Cl)c2c1 | / | 97 | 101 | 109

Rewritten with values under each structure: part of the list above
Values run as follows: HCMV NEC inh, Sa growth inh, Sa growth inh second temp, GIV Gai3 FP
- COC(=O)c1ccc(C=Nc2ccc3oc(-c4ccc(C)cc4)nc3c2)cc1
  /, 102, 93, 103
- Cc1ccc(-c2csc(N3N=C(c4ccc([N+](=O)[O-])cc4)CC3=O)n2)cc1
  -54, /, /, 104
- O=C(NC(=NCc1ccncc1)Nc1ccc2c(c1)OCCO2)c1ccc2c(c1)OCO2
  -13, /, /, 102
- COc1ccc(OCC(O)CNC(=O)c2ccc(C(F)(F)F)nc2C)cc1 (stereo not given)
  -19, 97, 84, 101
- CC1=C(C(=O)Nc2ccccc2)C(c2cccc(O)c2)n2nc(-c3ccccc3Cl)nc2N1 (stereo not given)
  -15, 105, 77, 104
- Cc1ccc(Cl)cc1NC(=O)CCCN1C(=O)CCn2nc(-c3cn(C)c4ccccc34)cc21
  /, 109, 94, 102

(list continues)
SMILES | HCMV NEC inh | Sa growth inh | Sa growth inh second temp | GIV Gai3 FP
O=C(CSc1nnc(COc2ccccc2)o1)NCc1ccccc1 | / | 102 | 93 | 105
COc1ccc(OCc2nc(C#N)c(NCCc3ccccc3)o2)cc1 | 5 | 101 | 85 | 106
CCOC(=O)C1CCCNC1=O (stereo not given) | 4 | 93 | 92 | 103
c1ccc(N2CCN(c3ccnc(N4CCN(c5ccccc5)CC4)n3)CC2)cc1 | -6 | 99 | 87 | /
CS(=O)(=O)Nc1cc(C(=O)NCCCN2CCCC2=O)ccc1N1CCNCC1 | -12 | / | / | 97
CCOC(=O)C(Sc1nnc(-c2cc(OC)cc(OC)c2)o1)c1ccccc1 (stereo not given) | 1 | 94 | 92 | /
CCNC(=O)c1cc(Br)ccc1Cl | -21 | 107 | 92 | 103
N#Cc1cccc(CSc2nnc(Nc3ccccc3)n2-c2ccccc2)c1 | -13 | 103 | 102 | 108
CC(C)(C)C1CCc2onc(C(=O)Nc3ccc(C#N)cc3)c2C1 (stereo not given) | 1 | 113 | 91 | 104
COc1ccc(C2CC(=O)C3=C(C2)Nc2onc(C)c2C3c2ccc(O)cc2)cc1 (stereo not given) | 2 | / | / | 103
O=C(Cc1ccccc1)Nc1ccc(I)cn1 | 8 | 93 | 59 | 103
CCOC(Cn1ccc(=O)[nH]c1=O)OCC | 0 | 95 | 90 | 100
Cc1ccc(C2Nc3ccc4ccccc4c3C3=C2C(=O)CC(C)(C)C3)cc1 (stereo not given) | -11 | 115 | 88 | /
COC(=O)CSc1nnc(Cc2cc(=O)[nH]c(=O)[nH]2)n1-c1ccc(OC)cc1 | -15 | 91 | 93 | 102
CN1C(=O)NC(=O)C1(C)C | -11 | 84 | 98 | /
CCOC(=O)c1c(NC(=O)COc2ccccc2)sc(C(=O)Nc2ccc(C)c(Cl)c2)c1C | 12 | / | / | 103
O=C(CCc1nc2sc3c(c2c(=O)[nH]1)CCCC3)NCCC1=CCCCC1 | -5 | / | / | 100
CC(C)NC(=O)c1ccc(Cn2c(=O)c3cccn3c3cccnc32)cc1 | / | 84 | 100 | 104
COc1ccc(-c2nnc3c4ccccc4c(C)nn23)cc1S(=O)(=O)N1CCC(C)CC1 | 0 | / | / | 98
O=C(NCc1ccncc1)c1ccc2c(c1)CCN2S(=O)(=O)c1ccc(Cl)cc1 | -17 | / | / | 104

Part of the list above in order of length of the SMILES, high to low.
SMILES | HCMV NEC inh | Sa growth inh | Sa growth inh second temp | GIV Gai3 FP
CCOC(=O)c1c(NC(=O)COc2ccccc2)sc(C(=O)Nc2ccc(C)c(Cl)c2)c1C | 12 | / | / | 103
Cc1ccc(-c2csc(N3N=C(c4ccc([N+](=O)[O-])cc4)CC3=O)n2)cc1 | -54 | / | / | 104
O=C(NCc1ccncc1)c1ccc2c(c1)CCN2S(=O)(=O)c1ccc(Cl)cc1 | -17 | / | / | 104
COC(=O)c1ccc(C=Nc2ccc3oc(-c4ccc(C)cc4)nc3c2)cc1 | / | 102 | 93 | 103

(list continues)
SMILES | HCMV NEC inh | Sa growth inh | Sa growth inh second temp | GIV Gai3 FP
Clc1ccc(-c2onc3cc(-c4ccccc4)ccc23)cc1 | / | 100 | 70 | 94
CC(=O)Nc1ccc2c(c1)nc(CN1CCCCC1)n2C | 4 | 95 | 93 | 109
COC(=O)CSC1=C(C#N)C(=O)NC(c2ccc(O)c(OC)c2)S1 (stereo not given) | -12 | 91 | 80 | 96
CC(C)c1ccc(N2C(=O)CSC23C(=O)N(C)c2ccccc23)cc1 (stereo not given) | / | 99 | 88 | 99
Cc1ccc(NC(=O)CSC2=NN3CCS(=O)(=O)N=C3S2)c(C)c1 | -1 | 99 | 91 | /
COc1cc(C2=N/C(=C\c3ccc(Br)cc3)C(=O)O2)cc(OC)c1OC | -17 | / | / | 105
CCCC12CCC(O)(CC1)C/C2=N\NS(=O)(=O)c1ccc(C)cc1 | 3 | 107 | 106 | 108
Cc1cccc(-c2nc3scc(CCNS(=O)(=O)c4ccc5c(c4)OCCO5)n3n2)c1 | / | 118 | 84 | 103
O=C(NC(=S)Nc1ncn[nH]1)c1ccccc1 | -18 | 98 | 90 | 108
COc1ccc(CNC(=O)C2CCCN(S(=O)(=O)c3ccc4c(ccn4C)c3)C2)c(OC)c1 (stereo not given) | / | 82 | 90 | 100
COc1ccc(NC(=O)c2nnn(Cc3nc(-c4cc(Br)ccc4OC)oc3C)c2C)cc1 | 7 | 96 | 96 | 101
O=C(Nc1ccc2nc(-c3ccccn3)[nH]c2c1)C1CCCCC1 | / | 56 | 68 | 101
CCOc1ccccc1C1CC(=O)C2=C(C1)Nc1ccccc1N(C(C)=O)C2c1ccc(OC)cc1 (stereo not given) | -6 | / | / | 105
CCOc1ccc(NC(=O)CSc2oc(-c3ccco3)nc2S(=O)(=O)c2ccc(Cl)cc2)cc1 | 1 | 100 | 104 | 103
C#CCO/N=C1/CCCc2nonc21 | -12 | 106 | 88 | 107
CC(Sc1nnc(-c2cc3ccccc3[nH]2)o1)C(=O)Nc1ccc2c(c1)OCCO2 (stereo not given) | -26 | / | / | 102
O=C1C=C(c2ccccc2)OC(c2ccccc2)O1 (stereo not given) | -30 | 102 | 92 | 104
CCOc1ccc(-c2cc(C(F)(F)F)c(C#N)c(SCC(=O)Nc3ccccc3)n2)cc1 | -32 | 89 | 83 | 105
CCN(c1ccccc1)S(=O)(=O)c1ccc(N(C)Cc2cccs2)nc1 | -2 | 95 | 104 | /
Cc1ccc(Nc2c(F)c(F)c(F)c(F)c2C(=O)O)c(C)c1 | 10 | 61 | 65 | 102

A second format for two compounds above:
Clc1ccc(-c2onc3cc(-c4ccccc4)ccc23)cc1
  HCMV NEC inh: /; Sa growth inh: 100; Sa growth inh second temp: 70; GIV Gai3 FP: 94

CC(=O)Nc1ccc2c(c1)nc(CN1CCCCC1)n2C
  HCMV NEC inh: 4; Sa growth inh: 95; Sa growth inh second temp: 93; GIV Gai3 FP: 109

Carrying on:
SMILES | HCMV NEC inh | Sa growth inh | Sa growth inh second temp | GIV Gai3 FP
CC1(C)Cc2c(c(-c3ccco3)nc3sc4c(NC5CCCCC5)ncnc4c23)CO1 | -14 | 96 | 76 | 109
COc1ccc(-c2nn3c(=O)cc(CN4CCN(S(=O)(=O)c5ccc(C)cc5)CC4)nc3s2)cc1 | / | 85 | 87 | 104
Cc1ccc(Cn2c(SCC(=O)NCc3ccc(Cl)cc3)nc3ccsc3c2=O)cc1 | / | 109 | 96 | 113
COc1ccc(C2Nc3ccccc3-c3cc(C)nn32)c(OC)c1 (stereo not given) | / | 106 | 93 | 102
O=C(Cc1cccc2ccccc12)NCCN1CCOCC1 | -15 | 97 | 88 | /
Cc1sc(-c2noc(C3CCC3)n2)cc1NC(=O)C1CC(=O)N(c2cccc(Cl)c2)C1 (stereo not given) | -10 | / | / | 105
COc1cccc(CNC(=O)CCc2c(C)nn(-c3ccc(N4CCOCC4)nn3)c2C)c1 | / | 92 | 104 | 106
CCCCC(=O)N1CCc2cc(OC)c(OC)cc2C1COc1ccc(OC)cc1 (stereo not given) | / | 58 | 74 | 105
CCn1c(C)[n+](CC)c2ccc(S(=O)(=O)N3CCCCC3)cc21 | -18 | 87 | 86 | 106
Oc1ccc(N=Cc2ccccc2O)cc1 | 7 | 92 | 54 | 104
COc1ccc(Nc2c3c(nc4ccc(NC(=O)/C=C/c5cccc(OC)c5OC)cc24)CCCC3)cc1OC | -17 | 108 | 77 | 102
Cc1ccnc(NC(c2ccsc2)c2c(NC(=O)c3ccccc3)sc3c2CCCC3)c1 (stereo not given) | -22 | / | / | 106
COc1ccc(Cn2c(SCC(=O)N(C)Cc3ccccc3)nc3ccccc32)cc1 | / | 115 | 92 | 108
Cc1ccccc1Nc1cccc2nonc12 | -17 | 67 | 52 | 142
CCn1c2ccccc2c2nnc(N3CCN(c4ccc(OC)cc4)CC3)nc21 | -16 | 120 | 88 | 100
CCC(C)NC(=O)CCc1cn(-c2ccccc2)nc1-c1ccc(C)cc1 (stereo not given) | 2 | / | / | 96
CC(C)Oc1ccc(CNC(=O)CN2C(=O)CCn3nc(-c4cn(C)c5ccccc45)cc32)cc1 | / | 115 | 100 | 110
CCCOC(=O)c1cccc(Nc2nc(C(=O)OCC)nc3ccccc23)c1 | -36 | 98 | 58 | 100
OCCCNC(c1ccccc1)c1ccc(O)cc1 (stereo not given) | -11 | 102 | 99 | 108
COc1cc(/C=C2/C(=O)N(c3ccccc3)N=C2C)ccc1OS(=O)(=O)c1ccc(C)cc1 | 13 | / | / | 116
Cc1cc(Cl)ccc1OC(C)C(=O)NCCCn1ccnc1 (stereo not given) | -27 | 96 | 80 | 97
O=C(c1cc2ccccc2oc1=O)N1CCN(c2ccc(Cl)cc2)CC1 | -33 | 105 | 86 | 112
COc1cc2c(cc1OC)C(C(=O)NCc1ccc3c(c1)OCO3)C1c3ccccc3CCN1C2=O (stereo not given) | -12 | 85 | 87 | 96
COc1cccc(NC(=O)Cn2nc(-n3cccc3)c3c(C)cc(C)nc32)c1 | -5 | / | / | 111
Cc1cccn2cc(CNS(=O)(=O)c3cccc(F)c3)nc12 | / | 82 | 83 | 100
Fc1ccc(-c2noc3ncnc(NCCc4ccccc4)c23)cc1 | / | 106 | 88 | 101
CCOC(=O)c1cnc2ccc(OCC)cc2c1NCCCN1CCOCC1 | -36 | 91 | 87 | /
CCc1nnc(NC(=O)CSC2=NCCS2)s1 | -6 | 94 | 101 | 103
CC(C)c1cc(C(C)C)c(S(=O)(=O)NCCC(=O)O)c(C(C)C)c1 | / | 59 | 64 | 98
COC(=O)c1ccc(NS(=O)(=O)c2ccc3c(c2)CC(C)N3C(=O)C2CCC2)cc1 (stereo not given) | 19 | 111 | 101 | 98
Cc1cc(=O)oc2cc(OCC(=O)c3ccccc3F)ccc12 | 6 | 97 | 102 | /
CN(CC(=O)NC1CCCCCCC1)S(=O)(=O)c1ccc2[nH]c(=O)oc2c1 | -21 | 96 | 91 | 106
CCCCN1C(=O)CN(CCc2ccccc2)C(=O)C1c1ccc(OC)cc1 (stereo not given) | 8 | 96 | 103 | 102
O=C(c1ccc(N2CCOCC2)nc1)N1CCN(C(c2ccccc2)c2ccccc2)CC1 | -14 | 86 | 67 | 104
